# NPYLR7 agonist: mosquito NPYLR7 agonism; HEK293T NPYLR7/Galpha15, GCaMP6s calcium fluorescence; activation, % at 10 µM; 270,000 compounds, 0.15% hits; in the data active = activation above about 40%;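 note: 0% = vehicle and 100% = reference agonist at the receptor; some compounds past the cut are filed as inactive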
# NPYLR7 agonist max-min: second read-out of NPYLR7 agonist, no call of its own (marks repeat the call); activation, %; measured here: Max-Min RFU normalised activation; some inactives read as strong as hits;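 span of the calcium signal over five minutes; 0% = vehicle and 100% = native peptide agonist; compound fluorescence can raise it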
# * hit, by the source's call; & = joins results of further samples. These rows are one share of the data. The share of hits here may be higher or lower than overall.
SMILES,NPYLR7 agonist,NPYLR7 agonist max-min
O=C(c1ccco1)N1CCCC(C(=O)N2CCN(S(=O)(=O)c3ccccc3)CC2)C1 (stereo not drawn),2,-1
COc1cc(C(=O)N2CCC(N3CCCC(C(=O)N4CCCC4)C3)CC2)ccn1 (stereo not drawn),-8,-11
CC1CC(N2CCN(c3nccs3)CC2)C(=O)O1 (stereo not drawn),-1,-2
Cc1cc(C)n(CCNC(=O)c2ncc[nH]2)c(=O)n1,23,10
Cc1nc2n(n1)C(=O)C(C(c1ccccc1Cl)N1CCN(Cc3ccccc3)CC1)S2 (stereo not drawn),-3,-11
Fc1cccc(F)c1C=NNc1ccccn1,0,-2
O=C(c1ccc(N2CCCCC2=O)cc1)N1CCN(S(=O)(=O)c2ccccc2[N+](=O)[O-])CC1,6,2
Cc1ccc(C(=O)N2CCC(N3CCCC(C(=O)N4CCCC4)C3)CC2)cc1O (stereo not drawn),5,2
Cc1cc(N2CCN(c3ccccc3)CC2)nc(-n2cc([N+](=O)[O-])cn2)n1,5,12
O=C(/C=C/c1ccc2c(c1)OCO2)NCCC1=CCCCC1,19,5
Cc1occc1C(=O)NN=Cc1cc(Br)ccc1O,-4,-5
FC(F)(F)Oc1ccc(CNc2nccnc2-c2ccc(OC(F)(F)F)cc2)cc1,-7,-12
CCCSc1nc(N)cc(=O)[nH]1,-1,6
CC(=O)OCC(=O)Nc1cccc(-c2cccc(-c3ccc(F)cc3F)n2)c1,-1,4
COc1cc(=O)n(-c2ccccc2C)nc1C(=O)Nc1ccc(Cl)cc1Cl,14,13
CCCN1CCC(C)(C(=O)Nc2cccc(OC(C)C)c2)C1 (stereo not drawn),2,0
O=C(CCNc1cc(C2CCNCC2)ncn1)NC1CCCCC1,27,23
O=c1c2nc(N3CCOCC3)sc2c(-c2ccccc2)nn1Cc1ccc(Cl)cc1,-4,-8
O=c1ccc(-c2ccc(F)cc2)nn1Cc1cccc(C(F)(F)F)c1,10,5
CCSc1ncc(-c2c(-c3ccccc3)ncn2Cc2ccon2)cn1,-1,-4
CCCCc1[nH]nc2ccnc(-c3cccc(CO)c3)c12,6,6
CSCC(C)(O)CNc1cccc(F)c1C(C)=O (stereo not drawn),7,5
COc1ccc(N2CCN(C3CC(=O)N(C4CC4)C3=O)CC2)cc1 (stereo not drawn),7,2
COc1ccccc1N1C(=O)c2ccc(OC)c(OC)c2C1=O,0,7
Cn1nc(C(=O)NCC2(O)CCNC2)c2c1CCCC2 (stereo not drawn),6,-3
CC(=O)O[C@@H]1c2cc(O)c(C)c(O)c2CO[C@@]12O[C@@H](C)CC[C@H]2OC(C)=O,21,16
NC(=O)CCN(Cc1ccccc1)S(=O)(=O)c1c(Cl)cccc1Cl,7,0
C=CCN(CC=C)c1cc(Oc2ccc(F)cc2C)ncn1,-8,-2
CCOc1ccc(-c2ccnc(N3CCN(C(=O)c4ccc(F)cc4C(F)(F)F)CC3)n2)cc1,-4,-5
N#CC(=Cc1ccc(-c2ccc(Cl)c(C(F)(F)F)c2)o1)C(N)=S,9,12
O=C(NCc1ccc(Cl)cc1)c1cc(N2CCSCC2)nc2ccccc12,10,4
CCNC(c1cccnc1)c1ccc2c(c1)CCC2 (stereo not drawn),6,3
Cc1cc(=O)n2nc(-c3ccccc3)c(=O)n(N)c2n1,-2,-2
Cc1ccc(C2C(=C(O)c3ccccc3)C(=O)C(=O)N2CCN2CCOCC2)o1 (stereo not drawn),-2,3
O=C(CCCC(=O)N1CC[C@H](CO)[C@@H](O)C1)c1ccccc1,0,-4
Cc1cc(CN(Cc2ccsc2)Cc2ccco2)n(C)n1,7,2
O=CNc1cc(-c2ccoc2)cn2c(-c3ccc(F)cc3)cnc12,-3,-8
CCN(CC)c1ncccc1CNC(=O)C1CCN(C(=O)N(C)C)CC1,21,10
CCn1c(C2CCCN(C(=O)c3cccnc3NC)C2)nn(C)c1=O (stereo not drawn),7,4
COc1ccc2oc(CNC(=O)CN3CCCCCC3)nc2c1,1,5
Cc1ccccc1-n1cc(-c2ccnc(NC3CCNCC3)n2)cn1,8,7
Cc1ccc(S(=O)(=O)N2CCOCC2)cc1C(=O)Nc1ccccc1C(=O)O,-9,-16
O=C(NC(Cc1ccccc1)c1nnc(SCc2ccc(F)cc2)n1-c1ccc(Cl)cc1Cl)c1ccccc1Br (stereo not drawn),-2,11
O=C(CN1CN(c2ccccc2)C2(CCN(C(=O)c3ccc(Br)cc3)CC2)C1=O)NCCc1ccc(Cl)cc1Cl,17,10
COCCCN(CC(=O)N1CCc2sccc2C1COc1ccccc1F)C(=O)Cc1ccccc1 (stereo not drawn),-5,-1
CCCS(=O)(=O)N1CCCC1C(=O)N1CCCC2CCCCC21 (stereo not drawn),9,6
O=C(/C=C/c1cccnc1)NC1CCN(c2ccc(Cl)cc2)C1=O (stereo not drawn),6,2
O=C(Nc1cccc(-c2nc3ccccc3o2)c1)c1cccc(Cl)c1Cl,-1,-12
COc1ccc(S(=O)(=O)N(Cc2cccc(Oc3ccc(Cl)cc3)c2)Cc2ccco2)cc1,0,-8
CCC1CN(c2cnc3ccccc3n2)CCC(=O)N1Cc1ccccc1 (stereo not drawn),3,-6
O=C(NCCc1ccccn1)c1cc(-c2cccs2)nn1-c1ccc(Cl)c(Cl)c1,18,22
Cc1cc(C(=O)Cn2cc(C(F)(F)F)cc(Cl)c2=O)c(C)n1C,0,-2
O=C(NCc1ccccc1)c1nn(-c2ccccc2)c(=O)n(Cc2cccc(Cl)c2)c1=O,14,16
CN(c1ccccc1)c1ccccc1NC(=O)C1CCOC1 (stereo not drawn),5&-2,1&-4
CC1CC(=O)c2cnc(N3CCC(Cc4ccccc4)CC3)nc2C1 (stereo not drawn),3,0
N#Cc1ccccc1-c1ccc(COc2coc(CN3CCN(C(=O)COCc4ccccc4)CC3)cc2=O)cc1,2,2
Cc1cc(C)cc(N(C(C)C(=O)Nc2ccccc2C(=O)NCC(C)C)S(C)(=O)=O)c1 (stereo not drawn),-1,-1
Cc1nc2ccc(C(=O)N(C)Cc3ccco3)cn2c1N(C)C(=O)CCc1ccccc1,20,14
CCN1C(=O)N(CCCc2cccnc2)C(=O)C12CCN(Cc1ccccc1-c1ccco1)CC2,17,6
COc1ccc(S(=O)(=O)Nc2ccc(N(C)C)c(CN(Cc3cccc(F)c3)C(=O)c3cccc(C)c3)c2)cc1,-2,5

# Continued:
SMILES,NPYLR7 agonist,NPYLR7 agonist max-min
FC(F)(F)c1ccnn1-c1nc(-c2ccc(Br)cc2)cs1,-1,-2
COCC1(C(=O)N2CCC(Cc3cccc(C(N)=O)c3)C2)CCC1 (stereo not drawn),20,16
Cc1ccc(C(=O)NCCCc2ccccc2)c(C2CCN(S(=O)(=O)c3ccccc3)CC2)n1,1,-2
CCN(CC)c1ncccc1CNCc1cccc(-n2cccn2)c1,3,2
CCc1c2c(nc3sc(C(=O)NCc4ccco4)c(N)c13)CC(C)(C)CC2=O,-2,-1
CN(C(=O)c1cccs1)C(Cc1ccccc1)C1CCN(C(=O)/C=C/c2ccccc2)CC1 (stereo not drawn),1,-4
COc1ccc(/C=C2\C=C(c3ccccc3)N(c3ccc(Sc4ccc([N+](=O)[O-])cc4)cc3)C2=O)cc1,10,16
O=C1CCc2cc(OCC(=O)N3CCCc4cc(F)c(F)cc43)ccc2N1,-2,0
COc1ccccc1NC(=O)/C=c1/s/c(=C\c2ccsc2)c(=O)n1C,2,1
Cc1cc2c(cc1Br)NC(=O)/C2=N/N1C(=O)c2ccccc2C1=O,14,5
COc1cc(CNc2ccc3nc(C)sc3c2)ccc1OC(F)F,2,2
CN(Cc1coc(-c2cccs2)n1)S(=O)(=O)c1ccc(F)cc1,4,0
CCCCC(=O)O[C@H]1CCC2C3CCc4cc(O)ccc4C3CC[C@@]21C (stereo partly drawn),-2,-8
CCONC(=O)c1sc(-c2ccccc2)cc1OCC(=O)N1CCCCC1,12,10
Fc1cc2nc(N3CCOCC3)ccc2cc1Br,0,-2
CCNC(=O)NC1CC1c1ccc(C)c(C)c1 (stereo not drawn),-2,-4
Oc1ccc(Cl)cc1C=Nc1n[nH]c2ccccc12,-15,-19
CC(CO)N(C)c1ncc(C(F)(F)F)cc1Cl (stereo not drawn),8,2
Cc1csc2nc(COC(=O)CC(NC(N)=O)c3cccc(Oc4ccccc4)c3)cc(=O)n12 (stereo not drawn),13,12
CC(=O)Nc1nnc(SCCc2ccccc2)s1,-5,0
CC(C(=O)N(Cc1cnn(C)c1)C1CC1)n1cccc1 (stereo not drawn),0,-1
CCN1CCN(C(=O)c2cnn(C(C)(C)C)c2C(C)C)CC1,11,20
CN(Cc1cc2n(n1)CCCNC2)Cc1cc(-c2ccccc2)n[nH]1,-4,-12
COc1ccc(C2CCN(S(=O)(=O)C3CC3)C2)cc1 (stereo not drawn),-3,-4
OCCCNc1ncnc2c1oc1ccccc12,6,1
COc1ccc(OC)c(CCNc2nc3cnc(-c4cc(OC)c(OC)c(OC)c4)cc3n2C)c1,70*,52*
Cn1c(N)c(C(=O)COC(=O)CC2CCCC2)c(=O)n(C)c1=O,3,10
CCCCCOc1ccc(S(=O)(=O)N2CCOCC2)c2ccccc12,-4,-6
Cc1cc(C)cc(-n2nnnc2SC(C)C(=O)N2CC(C)CC(C)C2)c1 (stereo not drawn),5,4
CCOC(=O)N1CCN(C2CCCN(C(=O)c3ccc(=O)[nH]c3)C2)CC1 (stereo not drawn),4,3
COCc1nc(C)nc(N2CCN(C(=O)c3cccs3)CC2)c1Cc1c(F)cccc1Cl,1,6
CO[C@H]1/C=C/O[C@@]2(C)Oc3c(C)c(O)c4c(O)c(c(C=NN5CCN(C)CC5)c(O)c4c3C2=O)NC(=O)/C(C)=C\C=C\C(C)[C@H](O)[C@@H](C)[C@@H](O)[C@@H](C)[C@@H](OC(C)=O)[C@@H]1C (stereo partly drawn),-6,-13
CC(C)=CC1C(C(=O)NC2CCCCC2C(F)(F)F)C1(C)C (stereo not drawn),12,11
COCCNCCOc1ccccc1,5,1
Cc1ccc(NC(=O)CC(=O)NCCN2CCCC2)cc1Cl,8,7
O=C(Nc1ccc2c(c1)OCO2)C(C1CCCC1)N1CCN(C(=O)c2cccc(F)c2)CC1 (stereo not drawn),-3,15
Cc1ccc(NC(=O)C(C)C)cc1C1CCN(Cc2ccc(Oc3ccc(F)c(F)c3)cc2)CC1,-12,-17
Nc1ccc2c(c1)nc1n2CCCCC1,9,7
COC(=O)C(CCSC)NC(=O)c1cc(COc2ccc(C)nc2)on1 (stereo not drawn),-6,-6
O=C(NCCc1ccc(Cl)cc1)C1CCCCC1,-10,-12
Cc1ccc2c(C)c(C(=O)N3CC(c4ccncc4)C3)oc2c1,-1,11
CC(=O)N1CCN(C(=O)Nc2cccc(OC(F)(F)F)c2)C(C)C1 (stereo not drawn),2,2
C=CCOc1cccn2c(N(C=O)CCCC)c(CC)nc12,2,5
O=C(CCc1c[nH]c2ccccc12)N1CCOC(Cc2ccccc2)C1 (stereo not drawn),26,26
COCc1cccc(-c2csc(C(NC(C)=O)c3ccc(F)c(F)c3)n2)c1 (stereo not drawn),5,0
CC(C)OCCCNC(=O)CCc1cc2c(n1-c1ccc3c(c1)OCO3)-c1ccccc1CC2,3,4
CCOP(=O)(Cc1ccc(NC(=O)CC(c2ccccc2)c2ccccc2)cc1)OCC,0,-3
Cc1ncc(CN2CCC(CNC(=O)CC3=CCCCC3)C2)cn1 (stereo not drawn),-2,-3
CN1C(=O)C2C(c3ccccc3)NN(C)C2C1=O (stereo not drawn),-7,-15
CC(O)CN1CCC(CNC(C(N)=O)c2ccc(F)cc2)CC1 (stereo not drawn),9,4
Cc1[nH]n(-c2nc(-c3cccc([N+](=O)[O-])c3)cs2)c(=O)c1N=Nc1ccc(Cl)cc1C(=O)c1ccccc1,5,13
CCN(C(=O)CN1CCN(S(=O)(=O)c2ccc(C)cc2)CC1)C1CCCCC1,1,2
COc1cc(NC(=S)Nc2ccc(F)cc2)cc(OC)c1OC,0,-1
COc1ccc(/C=C2\NC(=S)NC2=O)c(OC)c1,-8,-18
COc1cccc(C(=O)N2C(C(=O)NCc3ccco3)COC23CCN(C(=O)c2ccc(F)cc2)CC3)c1 (stereo not drawn),6,12
COc1ccc(C(=O)N[C@@H]2CCCCC2NC(=O)C2CCCN(C(=O)Cc3cccs3)C2)cc1 (stereo partly drawn),-2,-3

# Structures from the list above with a furan ring, fused or not:
SMILES,NPYLR7 agonist,NPYLR7 agonist max-min
O=C(c1ccco1)N1CCCC(C(=O)N2CCN(S(=O)(=O)c3ccccc3)CC2)C1 (stereo not drawn),2,-1
Cc1occc1C(=O)NN=Cc1cc(Br)ccc1O,-4,-5
N#CC(=Cc1ccc(-c2ccc(Cl)c(C(F)(F)F)c2)o1)C(N)=S,9,12
Cc1ccc(C2C(=C(O)c3ccccc3)C(=O)C(=O)N2CCN2CCOCC2)o1 (stereo not drawn),-2,3
Cc1cc(CN(Cc2ccsc2)Cc2ccco2)n(C)n1,7,2
O=CNc1cc(-c2ccoc2)cn2c(-c3ccc(F)cc3)cnc12,-3,-8
COc1ccc(S(=O)(=O)N(Cc2cccc(Oc3ccc(Cl)cc3)c2)Cc2ccco2)cc1,0,-8
Cc1nc2ccc(C(=O)N(C)Cc3ccco3)cn2c1N(C)C(=O)CCc1ccccc1,20,14
CCN1C(=O)N(CCCc2cccnc2)C(=O)C12CCN(Cc1ccccc1-c1ccco1)CC2,17,6
CCc1c2c(nc3sc(C(=O)NCc4ccco4)c(N)c13)CC(C)(C)CC2=O,-2,-1
OCCCNc1ncnc2c1oc1ccccc12,6,1
Cc1ccc2c(C)c(C(=O)N3CC(c4ccncc4)C3)oc2c1,-1,11
COc1cccc(C(=O)N2C(C(=O)NCc3ccco3)COC23CCN(C(=O)c2ccc(F)cc2)CC3)c1 (stereo not drawn),6,12
